Screening results deposited in PubChem BioAssay by National Center for Advancing Translational Sciences (NCATS).
NS1 inh: qHTS Assay for Inhibitors of Influenza NS1 Protein Function | 270,000 tested, 0.4% active | S. cerevisiae slowed by influenza A NS1, growth recovery by OD600 | Potency, µM (titrated, usually from 46.1 µM), inactives show top-dose activity, positive = more growth; note: actives are rising curves; nearly all actives have a fitted effect of over 50% in size
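A cell-based growth assay was used: compounds that relieve NS1-induced slow growth of budding yeast raise OD600. Assay medium was yeast nitrogen base with ammonium sulphate and -URA supplement, pH 6.0, with 2% galactose.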
Marburg entry inh: qHTS for inhibitors of binding or entry into cells for Marburg Virus; Marburg virus pseudotyped entry inhibition, cell reporter; control for the full effect not named in the record; about a third of the inactives were read at about 46 µM; Potency, µM (doses to about 37.8 µM), without a hit: top-dose activity change, negative = inhibition, hits mostly inhibitors; 300,000 tested, 1.8% active; active = well fitted inhibition curve with a large enough effect; inconclusive = small, poorly fitted or top-dose-only effect, or effect the other way; inactive = flat fitted curve, though single readings scatter; tested in HEK293 cells; about a fifth of its hits are not listed in these tables; note: % is set by controls: 0 for no effect and ±100 for the full control effect; luciferase read-out
Cruzain inh Det: qHTS Assay for Promiscuous and Specific Inhibitors of Cruzain (with detergent) | Cruzipain (Trypanosoma cruzi), P25779 | purified cruzain, Z-FR-AMC fluorescence, 0.01% Triton | Potency, µM, for inactives: max response, negative = inhibition, most hits filed as inhibitors | 200,000 tested, 0.43% active | AID 1478, 2009; active = well fitted curve in the direction sought with a large enough effect; inconclusive = small, poorly fitted or top-dose-only effect, or another doubt; inactive = no such curve, though single readings can be large; an effect the other way counts as inactive or inconclusive;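 note: plate controls were neutral wells for no effect and buffer without enzyme for full effect; nearly all actives have a fitted effect of over 40% in size; top concentration of the series not given in the record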
Target sequence (P25779 123-467 limits assumed): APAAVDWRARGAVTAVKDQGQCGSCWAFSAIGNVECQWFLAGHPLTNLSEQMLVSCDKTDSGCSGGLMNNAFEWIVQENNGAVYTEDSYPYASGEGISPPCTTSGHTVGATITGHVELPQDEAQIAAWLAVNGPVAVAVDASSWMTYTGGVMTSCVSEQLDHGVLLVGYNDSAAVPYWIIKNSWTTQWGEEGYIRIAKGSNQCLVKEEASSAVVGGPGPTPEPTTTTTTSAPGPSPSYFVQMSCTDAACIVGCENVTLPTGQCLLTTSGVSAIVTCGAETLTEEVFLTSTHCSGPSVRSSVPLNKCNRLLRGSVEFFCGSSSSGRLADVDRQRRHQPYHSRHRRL
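Enzyme 1.5 nM, Z-FR-AMC 2 uM, NaOAc 100 mM pH 5.5, DTT 5 mM, Triton X-100 0.01%; 15 min RT compound preincubation; kinetic ex360/em450, 60 s delta.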
Cruzain inh noDet: qHTS Assay for Promiscuous and Specific Inhibitors of Cruzain (without detergent). Potency, µM, for the others: max response, negative = inhibition, usual class: inhibitors. AID 1476, 2009. purified cruzain, Z-FR-AMC fluorescence, no detergent. 200,000 tested, 2.3% active; active = well fitted curve in the direction sought with a large enough effect; inconclusive = small, poorly fitted or top-dose-only effect, or another doubt; inactive = no such curve, though single readings can be large; an effect the other way counts as inactive or inconclusive;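 note: plate controls were enzyme without inhibitor for no effect and buffer without enzyme for full effect; nearly all actives have a fitted effect of over 40% in size; top concentration of the series not given in the record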
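Detergent-free condition (0.00005% Triton X-100) in acetate buffer pH 5.5 with DTT. 1.5 nM enzyme and compound were pre-mixed 15 min, then 2 uM Z-FR-AMC substrate added; reaction progress from fluorescence change between first and third reads (60 s).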
RE007 growth inh: qHTS Assay for Inhibitors of the HIV-1 protein Vpr. AID 651644, 2012. S. pombe RE007 Vpr strain, BacTiter-Glo ATP luminescence, 24 h; control for the full effect not named in the record. 360,000 tested, 0.21% active. Potency, µM (series often up to 92.2 µM), for the others: at the top dose activity change, negative = less growth; active = well fitted falling curve with a large enough effect; inconclusive = small, poorly fitted or top-dose-only effect; inactive = no such curve, though single readings can be large or run the other way;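 note: % is set by controls: 0 for no effect and ±100 for the full control effect; nearly all actives have a fitted effect of over 50% in size; the assay follows cell death caused by Vpr and the record does not say whether a fall means rescue or toxicity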
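Fission yeast RE007 carrying one integrated HIV-1 vpr copy, seeded at OD 0.01 in PMG+AL medium with 23 nL pinned compound. Grown 24 h at 30 degrees; viability read by BacTiter-Glo luminescence after 5 min.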
2A StopGo: High Throughput Screening for Foot and Mouth Disease Virus Antivirals; human cells with a luciferase reporter of 2A StopGo recoding; control for the full effect not named in the record; Potency, µM (doses to about 57.9 µM), without a hit: at the top dose signal change, negative = less light; 410,000 tested, 1.2% active; AID 1159524, 2015; active = well fitted falling curve with a large enough effect; inconclusive = small, poorly fitted or top-dose-only effect; inactive = no such curve, though single readings can be large or run the other way; tested in HEK293T cells; note: % is set by controls: 0 for no effect and ±100 for the full control effect; nearly all actives have a fitted effect of over 45% in size; luciferase light after 4 h
SARS PLpro yeast: qHTS of Yeast-based Assay for SARS-CoV PLP; S. cerevisiae expressing SARS-CoV PLpro, growth rescue; control for the full effect not named in the record; Potency, µM (series often up to 32.9 µM), inactives show at the highest dose activity, positive = growth rescue; 330,000 tested, 0.19% active; note: 0% is about no effect; nearly all actives have a fitted effect of over 55% in size; growth read by luminescence after 48 h
Lassa entry inh: qHTS for Inhibitors of binding or entry into cells for Lassa Virus; Lassa virus pseudotype entry inhibition, cell reporter; control for the full effect not named in the record; Potency, µM (highest dose often 37.9 µM), without a hit: at the highest dose activity change, negative = inhibition, hits mostly inhibitors; 300,000 tested, 1.2% active; AID 540256, 2011; active means well fitted inhibition curve with a large enough effect; inconclusive means small, poorly fitted or top-dose-only effect, or effect the other way; inactive means flat fitted curve, though single readings scatter; tested in HEK293 cells; note: % is set by controls: 0 for no effect and ±100 for the full control effect; nearly all actives have a fitted effect of over 50% in size; luciferase read-out
Active calls of the source: *; ? = inconclusive; / = not tested or not shown; & = joins results of further samples; [ ] = another dose, or the depositor's remark. Unless noted, calls come from the whole dose curve; as a rule, active means well fitted rising curve with a large enough effect; inconclusive means small, poorly fitted or top-dose-only effect; inactive means no such curve, though single readings can be large or run the other way. Potency is the fitted concentration of half-maximal effect.

1	COc1cccc(-n2c(CN3CCN(c4ccccn4)CC3)nc3ccc([N+](=O)[O-])cc3c2=O)c1
2	Cc1ccc(-c2n[nH]c(S(C)(=O)=O)c2C#N)cc1
3	Cc1ccc(C)c(N2CCN(C(=O)c3ccc(CS(=O)Cc4cccc(Cl)c4)o3)CC2)c1 (stereo not drawn)
4	Cc1ccc(CNC(=O)C2CCN(S(=O)(=O)c3ccc(F)cc3)CC2)cc1
5	Cc1cc(NC(=O)NC(=O)c2ccc(F)cc2F)n[nH]1
6	Cc1ccc(C)c2c1cc(C)c1nnc(SCc3ccccn3)n12
entry no.,1,2,3,4,5,6
NS1 inh,12%,4%,?,/,-1%,-12%
Marburg entry inh,/,9%,-30%[46.1 µM],9%[46.1 µM],?,24%
Cruzain inh Det,/,/,/,-1.3%,2.1%,-3.2%
Cruzain inh noDet,/,/,/,-10%,-6%,-10%
RE007 growth inh,2%,-6%,13%,/,-11%,-4%[3.69 µM]
2A StopGo,-19%,33%[activator],-24%,-20%,-20%,1%
SARS PLpro yeast,0%,0%,-10%,/,0%,-6%
Lassa entry inh,/,-8%,?,-3%[46.1 µM],16µM*,-1%

7	CCN(CC)c1ccc(-c2nnc(SCC(=O)Nc3ccccc3C#N)n2-c2ccccc2)cc1
8	COc1ccc(CCNC(=O)C2CCN(c3nc4ccccc4nc3C(F)(F)F)CC2)c(OC)c1
9	Cc1ccccc1CNC(=O)CN1C(=O)c2ccccc2S1(=O)=O
10	Cc1ccc(S(=O)(=O)Nc2cc(NC(=O)CN3CCOCC3)ccc2Cl)cc1
11	Cn1cnc(S(=O)(=O)Nc2ccccc2C(=O)NCC2CC2)c1
12	CC(Cc1cccs1)NC(=O)Nc1ccc(Cl)c(Cl)c1 (stereo not drawn)
entry no.,7,8,9,10,11,12
NS1 inh,12%,/,2%,0%,-42%,-157%
Marburg entry inh,?,/,-2%[46.1 µM],?,4%,5%
Cruzain inh Det,-0.9%,3.6%,/,0.2%,/,-7.3%
Cruzain inh noDet,-11%,-4%,/,14%,/,-6%
RE007 growth inh,7%,/,5%,17%,-13%,25%
2A StopGo,?,9%,38%[activator],0%,2%,-13%
SARS PLpro yeast,6%,/,-1%,3%,-1%,-46%
Lassa entry inh,11µM*,-1%[46.1 µM],0%,?,0%,?

13	COc1ccc([N+](=O)[O-])cc1N(CC(O)CN(C)C)S(=O)(=O)c1ccccc1 (stereo not drawn)
14	CCC(=O)Nc1nnc(/C=C/c2ccccc2)s1
15	CCOCCCNC(=O)C(NC(=O)Cc1cccs1)c1ccc(OC)cc1 (stereo not drawn)
16	CCCCn1c(N)c(N(CCC(C)C)C(=O)c2ccc(C)c(S(=O)(=O)N3CCOCC3)c2)c(=O)[nH]c1=O
17	CN(C)c1nc2c(N)ncnc2n1[C@H]1O[C@@H](CO)[C@H](O)[C@@H]1O
18	CCS(=O)(=O)N1CCC(C(=O)NCc2ccc(OC)cc2)CC1
entry no.,13,14,15,16,17,18
NS1 inh,-5%,-9%,/,/,1%,/
Marburg entry inh,-24%,/,-2%[46.1 µM],14%,17%[46.1 µM],-19%[46.1 µM]
Cruzain inh Det,-7.0%,/,/,/,/,/
Cruzain inh noDet,-3%,/,/,/,/,/
RE007 growth inh,14%,4%,6%,-6%,4%,0%
2A StopGo,-5%,9%,0%,-10%,5%,-14%
SARS PLpro yeast,4%,1%,5%,-1%,-2%,-1%
Lassa entry inh,0%,/,/,-6%,-11%[46.1 µM],10%[46.1 µM]

19	Cc1cccc(NC(=O)CNCC(=O)Nc2cccc(C)c2C)c1C
20	COc1ccc(CC(=O)Nc2sccc2C#N)cc1S(=O)(=O)N1CCOCC1
21	CCOC(=O)c1ccc(NC(=O)C(CC)Sc2nc3ncccc3o2)cc1 (stereo not drawn)
22	O=C(CN1CCN(C(=O)c2ccco2)CC1)Nc1cccc([N+](=O)[O-])c1
23	O=C1c2ccc3c4c(ccc(c24)C(=O)N1c1ccc(O)cc1)C(=O)N(c1ccc(O)cc1)C3=O
24	O=C(Nc1cccc(C(F)(F)F)c1)OCCN1CCN(Cc2ccccc2)CCC1=O
entry no.,19,20,21,22,23,24
NS1 inh,4%,/,/,-1%,2%,-33%
Marburg entry inh,/,-3%,/,6%[46.1 µM],16%[46.1 µM],-20%
Cruzain inh Det,/,/,-3.3%,/,/,-0.8%&2.0%
Cruzain inh noDet,/,/,-6%,/,/,7%&9%
RE007 growth inh,-2%,-3%,/,-1%,3%,-25%
2A StopGo,-18%,-6%,-3%,-17%,2%,-5%
SARS PLpro yeast,1%,2%,/,1%,0%,2%
Lassa entry inh,/,?,7%[46.1 µM],3%,2%,?

25	CCn1cc(C(=O)NCCCOC(C)C)c(=O)c2cc(S(=O)(=O)N3CCCC3)ccc21
26	COC(=O)c1ccc(-c2ccco2)n1Cc1nc(-c2ccc(OC)c(OC)c2)oc1C
27	O=[N+]([O-])c1cccnc1Sc1ccc(Br)cc1
28	C=CCNC(=O)C(=O)N/N=C/c1ccco1
29	Cc1nn(C(C)C(=O)NC2CCC(C)CC2)c(=O)c2nn(-c3ccccc3)c(C)c12 (stereo not drawn)
30	CC(=O)c1c(C)oc2ccc(N(C(=O)c3ccncc3)S(=O)(=O)c3ccccc3)cc12
entry no.,25,26,27,28,29,30
NS1 inh,-4%,25%,/,0%,-3%,/
Marburg entry inh,/,?,2%[46.1 µM],-10%,/,-19%[46.1 µM]
Cruzain inh Det,/,-5.1%,/,-6.0%,/,/
Cruzain inh noDet,/,?,/,4%,/,/
RE007 growth inh,5%,2%,-11%,4%,6%,-17%
2A StopGo,-1%,-2%,-7%,-1%,-4%,-20%
SARS PLpro yeast,2%,-2%,/,-27%,-2%,-1%
Lassa entry inh,/,?,-20%,11%,/,/

Part of the list above, with tabs:
cpd	structure	NS1 inh	Marburg entry inh	Cruzain inh Det	Cruzain inh noDet	RE007 growth inh	2A StopGo	SARS PLpro yeast	Lassa entry inh
27	O=[N+]([O-])c1cccnc1Sc1ccc(Br)cc1	/	2%[46.1 µM]	/	/	-11%	-7%	/	-20%
28	C=CCNC(=O)C(=O)N/N=C/c1ccco1	0%	-10%	-6.0%	4%	4%	-1%	-27%	11%
29	Cc1nn(C(C)C(=O)NC2CCC(C)CC2)c(=O)c2nn(-c3ccccc3)c(C)c12 (stereo not drawn)	-3%	/	/	/	6%	-4%	-2%	/
30	CC(=O)c1c(C)oc2ccc(N(C(=O)c3ccncc3)S(=O)(=O)c3ccccc3)cc12	/	-19%[46.1 µM]	/	/	-17%	-20%	-1%	/

(continued)
31	CN(C)c1ccnc(Oc2ccc(Cl)cc2)c1C#N
32	COC(=O)c1cccc(NC(=O)c2nsc3ccccc23)c1
33	COc1ccc(-c2csc3ncnc(N4CCN(S(=O)(=O)c5cccc(Br)c5)CC4)c23)cc1
34	Cc1cc(C)cc(Oc2ccccc2/C=N\O)c1
35	COc1ccccc1N1CCN(C(=O)COc2ccc(C)cc2Br)CC1
36	CCOc1ccc(NC(=O)C2C3CC/C=C\CCC32)cc1 (stereo not drawn)
entry no.,31,32,33,34,35,36
NS1 inh,-16%,/,/,-28%,-74%,-31%
Marburg entry inh,10%,?,?,-23%[46.1 µM],-13%,7%
Cruzain inh Det,-5.7%,0.7%,/,-8.4%,-7.6%,/
Cruzain inh noDet,-17%,4%,/,-6%,?,/
RE007 growth inh,?,/,-4%,-24%,-6%,12%
2A StopGo,/,-18%,-15%,-1%,-28%,43%[activator]
SARS PLpro yeast,-20%,/,4%,-23%,-1%,2%
Lassa entry inh,?,?,?,24%,?,?

37	COc1cccc(CNC(=O)C2CCN(c3nnc(-n4c(C)ccc4C)s3)CC2)c1
38	CCC1(c2ccccc2)NC(=O)N(Cc2ccc(C(=O)OC)cc2)C1=O (stereo not drawn)
39	Cc1ccc(CCNC(=O)c2cc(C)nc3c2c(C)nn3-c2ccc(C)cc2)cc1
40	O=C(Nc1nc2cc3c(cc2s1)OCCO3)c1cccc(S(=O)(=O)N2CCOCC2)c1
41	Cc1onc(-c2c(F)cccc2Cl)c1C(=O)NCc1ccc2c(c1)OCO2
42	CN(C)S(=O)(=O)c1ccc(C(=O)OC2CCOC2=O)cc1 (stereo not drawn)
entry no.,37,38,39,40,41,42
NS1 inh,/,-2%,/,-8%,-9%,14%
Marburg entry inh,-20%[46.1 µM],1%,/,/,11%,18%[46.1 µM]
Cruzain inh Det,-3.7%,-3.7%,-1.6%,-7.2%,/,/
Cruzain inh noDet,6%,-9%,-1%,5%,/,/
RE007 growth inh,/,-17%,/,/,17%,-7%
2A StopGo,-21%,-13%,-3%,/,-16%,32%[activator]
SARS PLpro yeast,/,14%,/,-4%,1%,-2%
Lassa entry inh,-8%[46.1 µM],7%,5%[46.1 µM],/,10%,-1%[46.1 µM]

43	CC(=O)Nc1ccc(S(=O)(=O)N(C)c2ccc(OCC(=O)OCC(=O)Nc3ccc(OC(F)F)cc3)cc2)cc1
44	Cn1nnnc1SCc1nc2ccccc2[nH]1
45	C/C(=N\NC(=O)CNC(=O)C(c1ccccc1)c1ccccc1)c1ccccc1
46	COC(=O)C1CC(c2ccc(Cl)cc2)=NO1 (stereo not drawn)
47	CCCCN(C)C(=O)c1ccc2c(c1)N(CC)C(=O)c1ccccc1S2=O (stereo not drawn)
entry no.,43,44,45,46,47
NS1 inh,8%,-3%,1%,/,-2%
Marburg entry inh,-3%,?,13%,-12%[46.1 µM],-3%[46.1 µM]
Cruzain inh Det,/,4.6%,4.6%,/,/
Cruzain inh noDet,/,-2%,13µM*,/,/
RE007 growth inh,-19%,-23%,21%,-12%,-12%
2A StopGo,-1%,25%,-10%,-1%,-5%
SARS PLpro yeast,0%,2%,2%,-3%,1%
Lassa entry inh,-11%,15%,1%,-4%[46.1 µM],35%[46.1 µM]
